Screening data as filed in PubChem BioAssay.
Six1-Eya2 blk = inhibitors of human Six1/Eya2 interaction | Q15475+O00167 | AlphaScreen GST-Six1/His-Eya2 binding, biochemical; hits give low values; control for the full effect not named in the record | activity change, % (test concentration not listed) | actives 0.56% (n = 360,000) | AID 651725; in the data active = activity change below about -65%; inconclusive = about -30% to -65%; inactive = above about -30%; further: on the % scale 0 is the no-effect control and ±100 the full control effect; compound concentration not given in the record
Target sequence (O00167 whole entry, looked up): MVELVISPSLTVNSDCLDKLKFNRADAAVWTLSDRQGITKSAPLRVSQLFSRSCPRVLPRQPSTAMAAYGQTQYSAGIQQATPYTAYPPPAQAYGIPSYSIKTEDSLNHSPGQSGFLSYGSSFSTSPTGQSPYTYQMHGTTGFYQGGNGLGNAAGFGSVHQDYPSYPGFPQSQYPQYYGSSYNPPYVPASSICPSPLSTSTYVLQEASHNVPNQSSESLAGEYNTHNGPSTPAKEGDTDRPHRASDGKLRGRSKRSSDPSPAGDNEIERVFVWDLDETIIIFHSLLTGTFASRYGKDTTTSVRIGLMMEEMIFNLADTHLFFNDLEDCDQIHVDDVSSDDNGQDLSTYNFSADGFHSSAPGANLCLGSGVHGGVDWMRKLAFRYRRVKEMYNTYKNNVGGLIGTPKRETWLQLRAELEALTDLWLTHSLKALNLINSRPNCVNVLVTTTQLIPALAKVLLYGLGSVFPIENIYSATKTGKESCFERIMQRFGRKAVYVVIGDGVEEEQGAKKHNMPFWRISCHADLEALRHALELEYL
Target sequence (Q15475 whole entry, looked up): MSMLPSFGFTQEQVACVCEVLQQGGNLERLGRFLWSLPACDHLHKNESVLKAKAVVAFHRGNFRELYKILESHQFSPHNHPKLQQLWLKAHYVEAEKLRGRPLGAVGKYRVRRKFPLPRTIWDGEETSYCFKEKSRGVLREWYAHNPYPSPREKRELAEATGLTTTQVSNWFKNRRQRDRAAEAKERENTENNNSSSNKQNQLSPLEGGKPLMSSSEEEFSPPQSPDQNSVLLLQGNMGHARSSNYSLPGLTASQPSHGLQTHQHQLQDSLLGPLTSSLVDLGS
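GST-Six1 + His-Eya2 (5X stock: 250/500 nM); Tris pH 8.0, 300 mM NaCl, 0.05% BSA, 0.02% Tween 20; GSH donor/Ni acceptor beads; 1 h 37 °C dark; AlphaScreen readout.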
TRPML1 agonist = human mucolipin-1 channel agonism | TRPML1-expressing cells, Ca2+ dye fluorescence, FDSS; host cell line not named in the record; reference of the full effect not given here | activation, % (test concentration not listed) | actives 0.12% (n = 410,000) | AID 624414; in the data active = activation above about 50%; inconclusive = about 30% to 50%; inactive = below about 30%; further: 0% is about no effect; the text of the record puts the active cut at 80%
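Cells: TRPML1-DL, 1X Tet inducer, ~16 h at 37 degrees C/5% CO2. Dye: ABD Ca8 no-wash + quencher, 45-90 min RT. Read: 10 s baseline, compound add, 110 s agonist phase; 54-4 EC80 (4uM final), 110 s antagonist phase.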
CtBP-E1A inh = blocks the CtBP interaction with E1A. actives 0.49% (n = 340,000). AID 651724. AlphaScreen GST-E1A/His-CtBP binding, 1536-well; hits give low values; control for the full effect not named in the record. activity change, % (concentration not given with the values); in the data active means activity change below about -65%; inconclusive means about -30% to -65%; inactive means above about -30%; further: on the % scale 0 is the no-effect control and ±100 the full control effect
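Homogeneous bead-based format: GST-tagged E1A captured on glutathione donor beads, His-tagged CtBP on nickel acceptor beads; compounds precede bead addition by 2 h at 37 °C.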
D2 agonist = activates the human D2 dopamine receptor. P14416. DiscoveRx PathHunter D2 beta-arrestin, luminescence, 90 min; 100% = 57 uM dopamine signal. activation, % (concentration not given with the values). actives 0.084% (n = 360,000). AID 624465; in the data active = activation above about 40%; inconclusive = about 15% to 40%; inactive = below about 15%; further: compound concentration not given in the record; the text of the record calls up to 30% inactive
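DiscoveRx PathHunter D2 beta-arrestin cells (2,100/well) attached overnight, then compound-stimulated 90 min at 37 C in HBSS/10 mM HEPES/0.1% Tween-20 buffer; beta-galactosidase complementation read by luminescence after 1 h at ambient temperature. Dopamine 57 uM final (EC100) as control.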
TRPML1 blocker = inhibitors of human TRPML1 channel. Q9GZU1. TRPML1-inducible cells, Ca2+ dye fluorescence, FDSS; hits give low values; inhibition of EC80 agonist-evoked calcium signal. activity change, negative = inhibition, % (test concentration not listed). actives 0.02% (n = 390,000); in the data active means activity change below about -50%; inconclusive means about -30% to -50%; inactive means above about -30%;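 further: stimulus is agonist 54-4 at its EC80 concentration; on the % scale 0 is the no-effect control and ±100 the full control effect; compound concentration not given in the record; the text of the record puts the active cut at -80%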
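Tet-induced TRPML1-DL cells loaded with Ca8 no-wash calcium dye were read kinetically on FDSS. Compound addition was followed by EC80 agonist 54-4 (4 uM final); inhibition was read over 110 s.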
PINK1 modulator = changes PINK1 expression; Potency, µM (titrated, usually from 76.6 µM), for inactives: at the highest dose activation (PINK1 increase), hits mostly activators; PINK1 immunofluorescence, high-content cytometry, 24 h; actives 0.2% (n = 410,000); active = well fitted activation curve with a large enough effect; inconclusive = small, poorly fitted or top-dose-only effect; inactive = flat fitted curve, though single readings scatter; cell line not stated here;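 further: potency means the concentration at half of the fitted maximal effect; % of control where 0% means no effect; nearly all actives have a fitted effect of over 65% in size; a mitochondrial uncoupler was the plate control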
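Compound titrations (5 concentrations, 24 h) on a stable cell line; DMSO and CCCP controls. Endpoint: fixed-cell PINK1 immunofluorescence with mitochondrial, cell and nuclear markers, scanned by microplate cytometer.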
Active calls of the source: *; u = inconclusive; x = no result given; & = joins results of further samples; [ ] = remark or other dose.

SMILES	Six1-Eya2 blk	TRPML1 agonist	CtBP-E1A inh	D2 agonist	TRPML1 blocker	PINK1 modulator
NS(=O)(=O)c1ccc(CCNC(=O)c2ccc(Cl)s2)cc1	1	-0.6	-4	-3.4	2	1.2%
COc1cc(NC(=O)C2CC(=O)NC3=C2C(=O)CCC3)c(OC)cc1Cl (stereo not given)	18	-0.1	29	-1.6	-9	1.2%[38.3 µM]
CCc1nc2ccc(C(=O)NCCCN3CCCC3=O)cn2c1N(C)C(=O)COc1ccccc1	2	-0.1	4	-2.0	-7	1.1%
O=[N+]([O-])c1ccc(N2CCN(C(=S)Nc3ccc(F)cc3F)CC2)cc1	-8	4.0	30	2.8	8	-1.3%
Cc1ccc(C)c(Nc2nn3c(=O)c4ccc(C(=O)NCc5cccs5)cc4nc3s2)c1	x	1.0	x	x	20	0.8%
C[N+](C)(C)c1ccc(/C=N/Nc2nc(Cl)c(C#N)c(Cl)c2Cl)cc1	-8	1.3	8	-4.1	37	4.5%
O=C(NCCCN1CCN(c2ccccc2F)CC1)Nc1ccc(F)cc1	1	0.8	-8	14	16	-1.3%
CCN(CC)CCNC(=O)Cc1c(C(=O)O)n(C)c2ccccc12	-1	-0.2	2	-1.3	0	0.2%
O=C(Cn1c2ccc(F)cc2c2nc3n(c(=O)c21)CCS3)NC1CCCC1	8	-0.2	0	-6.7	3	1.1%
COC(=O)c1ccc(Cn2c(SCC(=O)Nc3ccc(F)cc3)nc3ccccc32)cc1	x	3.8	x	x	4	-1.7%
Cc1ccccc1Cn1cc(NC(=O)CSc2nc3c(c(C(F)(F)F)n2)CCc2ccccc2-3)cn1	-17	1.4	-17	2.6	38	10%[38.3 µM]
CN(C)c1ccc(C(CNC(=O)c2ccco2)N2CCCC2)cc1 (stereo not given)	-1	0.3	-10	-4.1	-4	-0.2%
Cc1ccnc(S(=O)(=O)Cc2ccc([N+](=O)[O-])cc2)n1	10	0.7	x	-3.8	-18	0.9%
Cc1ccc(-n2nc(C)c3c(C(=O)NCc4ccc(F)cc4)cc(C)nc32)cc1	x	-0.4	x	x	27	1.8%
COC(=O)C(C)N(C#N)c1nc(C)nc(C)n1 (stereo not given)	3	-0.1	4	-3.1	12	-0.8%[38.3 µM]
COCC(C)n1c(SCc2cc(=O)n3cc(C)ccc3n2)nc2ccccc2c1=O (stereo not given)	6	1.6	2	-0.6	6	0.7%
S=C(NCCN1CCOCC1)Nc1ccc(Br)cc1	9	0.1	7	0.7	8	0.7%
COc1ccc(NC(=O)CSc2ccc3c(c2)OCCO3)cc1	-10	0.8	-6	-4.7	27	-1.1%
Cc1cccc(NC(=S)NC2CCCCCC2)c1C	-11	-0.3	-3	-6.3	-24	-0.8%
Cc1ccc(Cc2c(-c3ccccc3)nc3c(Cl)cc(C(F)(F)F)cn23)cc1	11	0.9	-17	-3.0	x	-0.1%
O=C(CSc1nnc(-c2cccs2)o1)OC1CCCCC1	17	0.9	7	0.0	-5	-0.2%[38.3 µM]
Cc1nn(-c2ccccc2)c(C)c1NC(=O)COc1ccccc1C#N	-4	-1.1	-3	0.7	-19	1.3%
CC1CCCCC12NC(=O)N(CC(=O)NCCc1ccc(F)cc1)C2=O (stereo not given)	6	0.9	0	4.7	-5	1.8%
CC(Nc1ccc(S(=O)(=O)N2CCN(C)CC2)cc1[N+](=O)[O-])c1ccccc1 (stereo not given)	-26	-0.4	-17	-3.7	2	0.0%
CCOC(=O)C(=O)Nc1nnc2n1CCS2	x	0.9	x	x	-24	-0.6%
SMILES	Six1-Eya2 blk	TRPML1 agonist	CtBP-E1A inh	D2 agonist	TRPML1 blocker	PINK1 modulator
CCCCC(CC)COC(=O)C(C#N)=C(c1ccccc1)c1ccccc1 (stereo not given)	-4	-0.4	-1	-3.0	12	8.4%
O=C(COC(=O)c1cc(Cl)ccc1O)NCC1CCCO1 (stereo not given)	-15	-0.3	-2	-0.6	-13	1.0%
CC(=O)Nc1cc(C(=O)NCc2ccccc2Cl)ccc1Sc1ccc(F)cc1	x	1.0	x	x	45	0.1%
O=S(=O)(NCC(c1ccccc1)N1CCNCC1)c1ccc(Cl)cc1 (stereo not given)	-6	-1.2	-1	-0.5	4	-4.2%
COc1cc(S(=O)(=O)n2ccc(C)n2)ccc1Cl	9	0.5	0	-4.0	3	0.3%
CN(CC(=O)Nc1cccc(F)c1)C(=O)C1CCN(C(=O)c2ccc(Cl)cc2)CC1	3	0.0	x	-1.0	-7	20%
COc1ccc(Nc2ncc(C(=O)Nc3cccc(OC)c3)c3ccccc23)cc1	x	0.8	x	x	-9	0.3%
CCn1c(=O)c(=O)[nH]c2cc(C(=O)NCc3ccc(F)cc3)ccc21	-5	-0.5	1	4.4	1	3.7%
Cc1ccc(S(=O)(=O)CCC(=O)OCC(=O)Nc2cc(C)on2)cc1	3	-0.1	9	-0.1	-6	-1.1%
OC(COc1ccc(F)cc1)CN1CCN(CC(O)COc2ccc(F)cc2)CC1 (stereo not given)	3	-0.1	9	-2.0	-5	0.9%
O=C(Nc1ccccc1)Nc1ccc(Cl)c([N+](=O)[O-])c1	1	-0.1	7	-3.1	-16	2.0%
CCOC(=O)c1ccc(NC(=O)c2cc3c(C)nn(-c4ccccc4Cl)c3s2)s1	-11	-0.6	2	-2.4	2	5.6%
C=CCN=C1CCCc2c1[nH]c1ccc(C)cc21	3	2.7	-6	3.4	32	0.3%
CCc1ccccc1N(C)C(=O)c1cc2c(Cl)nc3ccc(C)cc3c2s1	x	0.0	x	x	15	-0.4%
Cc1noc(C)c1S(=O)(=O)Nc1cccc(CO)c1	2	0.6	-3	5.4	8	1.5%
O=C(NC(=S)N1CCCCC1c1cccnc1)c1ccc(Br)cc1 (stereo not given)	12	0.8	x	-0.4	25	0.7%
Cc1ccnc(NC(=O)CCC(=O)N(CC(=O)NC(C)(C)C)c2ccc3c(c2)OCCO3)c1	-1	-0.6	5	-1.2	-2	0.1%
CCOc1ccc(OCC(=O)Nc2nccs2)cc1	6	0.9	2	0.5	21	-0.8%
O=S(=O)(N[C@H](CO)Cc1ccccc1)c1ccc(Br)cc1F	1	-0.5	-3	-7.5	-22	0.5%
COC(=O)c1cnc2c(c(C)nn2C)c1OC	5	-0.4	35	0.9	-2	-1.4%
COc1cc(NS(=O)(=O)c2ccc(C)cc2)ccc1-n1cnnn1	-1	-0.6	0	0.3	-5	4.5%[38.3 µM]
CCCCN1CNC(=S)N(c2cc(C)ccc2C)C1	-1	-0.9	0	-5.1	11	8.9%[38.3 µM]
COC(=O)CCC(=O)OC	10	x	-21	-5.5	x	-0.2%
Cc1ccc(-c2noc(-c3ccccc3C(=O)N3CCN(C)CC3)n2)cc1	2	-0.5	9	-4.3	-14	-1.9%
CCOc1ccc(NC(=O)COC(=O)Cc2ccc(S(=O)(=O)N3CCOCC3)s2)cc1	-5	0.1	-8	0.1	-4	x
SMILES	Six1-Eya2 blk	TRPML1 agonist	CtBP-E1A inh	D2 agonist	TRPML1 blocker	PINK1 modulator
Cc1ccc(Oc2ccccc2NC(=O)CN2C(=O)NC3(CCCC3)C2=O)cc1	-21	2.1	-21	0.9	-2	2.5%
O=C(CSc1nnc(-c2ccccc2O)o1)NC1CCCCC1	-12	-0.6	-5	-1.8	3	-1.5%
O=C(/C=C/c1ccccc1)N(Cc1ccc(Cl)cc1)C1CCS(=O)(=O)C1 (stereo not given)	-3	-0.4	3	-9.9	1	-0.6%
COc1ccccc1-n1ccnc(SCC(=O)NCc2ccccc2)c1=O	2	1.4	3	-4.0	2	1.4%
O=C(Nc1ccccn1)C1CCN(C(=O)c2ccc(Cl)cc2)CC1	-5	0.0	5	-1.0	0	1.0%
O=C(O)C(Oc1ccc2c(c1)oc(=O)c1ccccc12)c1ccccc1 (stereo not given)	-16	0.7	-3	-2.3	3	1.7%
CCCCN1C(=O)C(CC(=O)NCCCCc2ccccc2)CC(C(=O)N(C(C)C)C(C)C)=C1C (stereo not given)	-3	x	0	0.8	x	0.4%
O=C(Nc1cc(Cl)ccc1-n1cncn1)C1CC1	10	-0.8	0	-0.8	27	-1.0%
COCC1CCCN(Cc2nc(C(c3ccccc3)c3ccccc3)no2)C1 (stereo not given)	11	1.8	7	-3.5	44	0.1%
CN(CCNC(=O)c1cn(C)c2ccc(S(=O)(=O)N(C)C)cc2c1=O)CCc1ccccc1	-1	0.6	4	-0.6	-3	1.2%
Cc1nc(SCC(=O)NC2CCS(=O)(=O)C2)c(C#N)c(C)c1C (stereo not given)	-1	-0.8	x	0.1	-3	4.1%
CCCC(=O)Nc1cc(-c2nnc(OC)c3ccccc23)ccc1N1CCOCC1	5	1.9	0	-1.6	3	-0.2%
CCn1c(C)[n+](CC)c2ccc(S(=O)(=O)N(C)C)cc21	6	1.4	0	-4.1	-9	-0.1%
O=C(Nc1cccn(Cc2c(F)cccc2Cl)c1=O)NC1CCCCC1	-12	2.2	-20	-3.1	38	2.8%
O=C(Nc1ccnc(-c2cccnc2)n1)c1ccc(Cl)cc1	-3	2.4	5	-3.0	5	3.2%[38.3 µM]
NC(=O)CC(NC(=O)Cc1ccc(Br)cc1)c1ccc(N2CCC(N3CCCCC3)CC2)c([N+](=O)[O-])c1 (stereo not given)	-1	0.0	5	1.8	2	0.3%
Cc1ccc(Nc2cc(=O)[nH]c(=O)[nH]2)cc1C	0	0.4&-0.7	x	7.2	30&4	-0.6%&0.9%
CC(C)CCn1c(=O)c2c(nc3n2CCCN3Cc2ccccc2)n(C)c1=O	u	0.5	-30	-1.6	-18	6.7%
COc1ccc(/C=C2\Oc3cc(OCC(=O)N4CC(O)C[C@H]4C(=O)O)ccc3C2=O)c(OC)c1OC (stereo not given in full)	7	x	-18	-8.7	x	-1.3%
CCCNc1ccc(S(=O)(=O)N(C(C)C)C(C)C)cn1	39	-0.8	0	-0.4	-7	-0.5%
O=C(Cc1ccc([N+](=O)[O-])cc1)Oc1ccccc1	-4	1.6	-6	-2.3	9	-2.5%
NC1=NC(=O)/C(=C/c2ccsc2)S1	9	-0.2	-5	-0.9	12	0.4%
COc1cccc(-n2c(=O)c3c4c(sc3n(Cc3ccccc3C#N)c2=O)CCCC4)c1	x	1.3	x	x	1	-1.3%

7 compounds picked at random from those above, as already listed:
SMILES	Six1-Eya2 blk	TRPML1 agonist	CtBP-E1A inh	D2 agonist	TRPML1 blocker	PINK1 modulator
O=C(CSc1nnc(-c2ccccc2O)o1)NC1CCCCC1	-12	-0.6	-5	-1.8	3	-1.5%
COCC1CCCN(Cc2nc(C(c3ccccc3)c3ccccc3)no2)C1 (stereo not given)	11	1.8	7	-3.5	44	0.1%
Cc1ccc(Nc2cc(=O)[nH]c(=O)[nH]2)cc1C	0	0.4&-0.7	x	7.2	30&4	-0.6%&0.9%
CC(C)CCn1c(=O)c2c(nc3n2CCCN3Cc2ccccc2)n(C)c1=O	u	0.5	-30	-1.6	-18	6.7%
O=C(/C=C/c1ccccc1)N(Cc1ccc(Cl)cc1)C1CCS(=O)(=O)C1 (stereo not given)	-3	-0.4	3	-9.9	1	-0.6%
O=C(Nc1cccn(Cc2c(F)cccc2Cl)c1=O)NC1CCCCC1	-12	2.2	-20	-3.1	38	2.8%
NC(=O)CC(NC(=O)Cc1ccc(Br)cc1)c1ccc(N2CCC(N3CCCCC3)CC2)c([N+](=O)[O-])c1 (stereo not given)	-1	0.0	5	1.8	2	0.3%
